Bioassay records as filed in PubChem BioAssay.
YB-1 expr inh: inhibitors of YB-1 gene expression, primary screen, cell-based, fluorescence; U2OS, qRT-PCR YB-1 vs CDIP delta delta Cp, 16 h; active compounds read high; zero = DMSO, each unit about twofold; AID 434959, 2010; hit rate 0.37% among 30,000; delta delta Cp (YB-1 minus CDIP) (no concentration beside the values);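 active = delta delta Cp rounded down to an integer at or above 3, about 3 SD of DMSO wells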;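 also: higher means less YB-1 transcript or more CDIP transcript relative to DMSO; stock transfer was 100 nL into about 100 µL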
MITF inh: inhibitors of MITF, primary screen, MITF inhibitor project, cell-based, luminescence; TRPM1 promoter luciferase, 24 h; inhibition, % (test concentration not listed); hit rate 0.28% among 37,000;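 active = most replicates at 85% or more, or half of them and the mean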;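 also: human melanocyte line stably carrying TRPM1 promoter luciferase reporter; 0% = vehicle wells and 100% = a positive control; the first replicate is given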
Numbers without * were called inactive; / = not tested or not shown.

Start of the data: the first 2 compounds as a preview:
SMILES	YB-1 expr inh	MITF inh
CC(=O)CC(c1ccc(Br)cc1)c1c(O)c2ccccc2oc1=O (stereo not drawn)	/	8.5
COc1ccccc1OCCCn1cc(C(=O)c2ccccc2)c2ccccc21	/	9.0

Main list, previewed entries included:
SMILES	YB-1 expr inh	MITF inh
CC(=O)CC(c1ccc(Br)cc1)c1c(O)c2ccccc2oc1=O (stereo not drawn)	/	8.5
COc1ccccc1OCCCn1cc(C(=O)c2ccccc2)c2ccccc21	/	9.0
c1cncc(CNCCc2c[nH]c3ccccc23)c1	/	1.8
COc1ccc(OC(=O)N(C)C[C@@H]2OCc3cnnn3CCCC(=O)N([C@H](C)CO)C[C@H]2C)cc1	0.443	/
Cc1ccc(OC(=O)N(C)C[C@H]2OCc3cnnn3CCCC(=O)N([C@@H](C)CO)C[C@@H]2C)cc1	-0.172	/
C[C@@H]1CN([C@@H](C)CO)C(=O)CCCn2nncc2CO[C@@H]1CN(C)C(=O)Oc1ccc2ccccc2c1	0.284	/
C[C@@H]1CN([C@@H](C)CO)C(=O)CCCn2nncc2CO[C@@H]1CN(C)C(=O)Oc1cccc2ccccc12	-0.0535	/
C[C@@H]1CN([C@H](C)CO)C(=O)CCCn2nncc2CO[C@H]1CN(C)C(=O)Oc1ccc2ccccc2c1	-0.733	/
Cc1ccc(OC(=O)N(C)C[C@@H]2OCc3cnnn3CCCC(=O)N([C@@H](C)CO)C[C@@H]2C)cc1	-0.0212	/
C[C@H](CO)N1C[C@H](C)[C@@H](CN(C)C(=O)Oc2ccc3ccccc3c2)OCc2cn(nn2)CCCC1=O	-0.557	/
C[C@H]1CN([C@@H](C)CO)C(=O)CCCn2cc(nn2)CO[C@@H]1CN(C)C(=O)Oc1ccc2ccccc2c1	-0.251	/
Cc1ccc(OC(=O)N(C)C[C@@H]2OCc3cnnn3CCCC(=O)N([C@H](C)CO)C[C@@H]2C)cc1	-0.24	/

Single entries from the results shown.
Value of C[C@H](CO)N1C[C@H](C)[C@@H](CN(C)C(=O)Oc2ccc3ccccc3c2)OCc2cn(nn2)CCCC1=O under YB-1 expr inh: -0.557
Value of C[C@@H]1CN([C@@H](C)CO)C(=O)CCCn2nncc2CO[C@@H]1CN(C)C(=O)Oc1cccc2ccccc12 under YB-1 expr inh: -0.0535
Value of Cc1ccc(OC(=O)N(C)C[C@@H]2OCc3cnnn3CCCC(=O)N([C@@H](C)CO)C[C@@H]2C)cc1 under YB-1 expr inh: -0.0212
Value of C[C@H]1CN([C@@H](C)CO)C(=O)CCCn2cc(nn2)CO[C@@H]1CN(C)C(=O)Oc1ccc2ccccc2c1 under YB-1 expr inh: -0.251
Value of C[C@@H]1CN([C@@H](C)CO)C(=O)CCCn2nncc2CO[C@@H]1CN(C)C(=O)Oc1ccc2ccccc2c1 under YB-1 expr inh: 0.284
Value of Cc1ccc(OC(=O)N(C)C[C@@H]2OCc3cnnn3CCCC(=O)N([C@H](C)CO)C[C@@H]2C)cc1 under YB-1 expr inh: -0.24

Some of the compounds tested; the hit share may differ from the screen's.
